# Compound activity from PubChem.
# BJeLR viability = kills HRASV12-expressing BJeLR cells; BJeLR (HRASV12) viability, CellTiter-Glo ATP luminescence, 48 h; reference of the scale not given here; inhibition, % (test concentration not listed); 0.17% of 300,000 active; AID 1554;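 active = replicate mean above 50%; inconclusive = above 50% but judged a plate artefact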;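 note: 50 nL library stock added to about 25 µL; numbers are from one replicate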
# Bead autofluor = flagged as autofluorescent in microsphere protease counterscreen. compound autofluorescence counterscreen, microsphere flow cytometry; stronger effect = higher value. fluorescence intensity (test concentration not listed). 3.1% of 360,000 active;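 active = at least 3 SD above the mean of all compounds, about 16000 in these data; inconclusive = too few beads counted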;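 note: 100 nL of 1 mM stock went into each well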
# ugtP null kill = growth inhibition of S. aureus ugtP deletion strain. S. aureus RN4220 ugtP deletion, OD600 growth, 16 h; some inactives read as strong as hits. growth inhibition, % (no concentration beside the values). 0.54% of 330,000 active;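 active = z-score under -3 and OD600 up to 0.15 on both plates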;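 note: plate controls were untreated wells for no effect and antibiotic for full effect; wells of about 80 µL received 100 nL stock; the first replicate is given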
# RN4220 kill = kills Staphylococcus aureus RN4220; S. aureus RN4220 growth, OD600, 16 h; 0.33% of 330,000 active; AID 1259311; inhibition, % (no concentration beside the values);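 active = z-score of -3 or lower and OD600 up to 0.18 on both plates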;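 note: plate controls were untreated cells for no effect and reference antibiotic for full effect; stock transfer was 100 nL into about 80 µL; one replicate is shown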
# PrP UTR inh = inhibition of PrP 5' UTR reporter expression | cell-based PrP 5' UTR mRNA reporter, plate reader | inhibition, % (concentration not given with the values) | 0.35% of 340,000 active | AID 488862;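 active = every replicate at 50% or more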;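 note: 0 = median of the neutral control wells; tested in H4 reporter cells; numbers are from one replicate; inactives centre near -14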
# Mtb hypoxia inh = inhibitors of hypoxia-regulated fluorescent reporter in Mycobacterium tuberculosis; M. tuberculosis hypoxia-regulated fluorescent reporter, fluorescence; fluorescence inhibition, % (no concentration beside the values); 0.1% of 300,000 active; AID 1159583;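 active = 35 to 45% if threefold the growth effect, above 45% if 1.5-fold the growth effect; inactive = the rest, general growth blockers included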;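 note: wells of about 50 µL received 100 nL stock; 0% = vehicle wells and 100% = reference inhibitor wells; whole bacteria with a GFP reporter of the hypoxia response; strong numbers were not always called active; many hits fall short of the cut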
# Mtb hypoxia inh growth = further read-out of Mtb hypoxia inh, marked with its call; growth inhibition, %; measured here: M. tuberculosis growth (absorbance);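 0% = vehicle and 100% = reference antibiotic; read after six days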
# The depositor's hits bear a star; ? = inconclusive; . = no result given.
SMILES,BJeLR viability,Bead autofluor,ugtP null kill,RN4220 kill,PrP UTR inh,Mtb hypoxia inh,Mtb hypoxia inh growth
CCOCCCNC(=O)c1ccc(Cn2c(=S)[nH]c3c([nH]c4ccc(OC)cc43)c2=O)cc1,1,3262,8,5.2,-11,1,5
O=C(Nn1cnc2ccccc2c1=O)c1cccc(Cl)c1,-9,2354,1,2.1,-24,-3,-4
Cc1ccc(NC(=O)CCN2C(=O)c3ccccc3S2(=O)=O)cc1C,1,4719,0,3.9,-12,1,5
CN(C)/C=C/C(=O)c1ccc(F)cc1F,6,4800,-2,-0.2,-67,-5,15
COc1cc(C(=O)c2nccc3cc(OC)c(OC)cc23)c([N+](=O)[O-])cc1OC,-5,4369,3,4.7,-3,9,9
CC(NCCOc1ccccc1F)C(=O)Nc1ccc(S(N)(=O)=O)cc1 (stereo not drawn),-5,5738,1,1.3,-19,1,-1
O=C(/C=C/Nc1cccc(C(F)(F)F)c1)c1ccco1,-10,3406,3,7.5,-35,6,-4
Cc1cc(OCc2ccc(C(=O)Nc3ccc(C(=O)O)cc3)o2)ccc1Cl,0,3809,3,27,-24,5,1
Cc1c(-n2c(SCC(=O)O)nnc2-c2ccccc2Cl)c(=O)n(-c2ccccc2)n1C,-1,4213,-6,5.2,0,-87,-15
Cc1cc(S(=O)(=O)NC(C)c2nnc3ccccn23)ccc1Br (stereo not drawn),.,8481,6,7.9,-21,6,5
CC(=O)C1=C(C)Nc2ncnn2C1c1ccc(F)cc1 (stereo not drawn),-5,3270,1,1.2,-3,-5,-7
COc1ccc(C2N(c3cc(C)on3)C(=O)C3CCCN32)cc1 (stereo not drawn),12,2192,6,5.2,-21,4,-6
CCCn1nc(NC(=O)c2ccco2)c2cc3cc(C)ccc3nc21,-10,3867,-14,6.8,-9,6,4
Cc1ccc(C(=O)NCCN2CCOCC2)cc1C,-2,3455,15,4.2,-13,0,0
COc1ccc(NC(=O)CN2CCN(c3ccccc3Cl)CC2)cc1,5,2864,-3,1.9,-24,.,.
COc1ccc(Cl)cc1NC(=O)CN1C(=O)NC(Cc2c[nH]c3ccccc23)C1=O (stereo not drawn),.,3058,-2,6.2,-2,10,4
Cc1ccc([N+](=O)[O-])c(OCCn2cnc3ccccc32)c1,9,4097,8,6.4,2,-3,7
CCN(Cc1ccncc1)C(=O)c1cc(COc2ccc(F)cc2Cl)on1,15,5971,-5,7.1,-9,5,6
C=CCOn1c(=O)c(-c2ccc(OC)cc2)[n+]([O-])c2ccccc21,2,3359,1,9.9,-8,5,3
Cc1ccc(-c2nnn(CC(=O)N(c3cccc(F)c3)C(C(=O)NC3CCCC3)c3ccncc3)n2)o1 (stereo not drawn),3,5455,-5,2.7,-26,5,-1
O=C(COC(=O)c1ccco1)Nc1ccc2[nH]c(=O)[nH]c2c1,.,3845,6,5.5,-16,8,9
Cc1ccc(C)c(-n2c3nc(=O)[nH]c(=O)c-3cc3cc([N+](=O)[O-])ccc32)c1,.,7041,-16,2.3,-19,7,6
O=C(CN1CCN(C/C=C/c2ccccc2)CC1)Nc1cc([N+](=O)[O-])ccc1Cl,-17,2382,3,-3.1,-35,-3,-5
COc1ccc(NC(=O)c2cccc(S(=O)(=O)N3CCCC3)c2)cc1OC,.,8454,7,7.0,-13,5,5

# Compound profiles, as listed above.
# CCN(Cc1ccncc1)C(=O)c1cc(COc2ccc(F)cc2Cl)on1 reads BJeLR viability = 15; Bead autofluor = 5971; ugtP null kill = -5; RN4220 kill = 7.1; PrP UTR inh = -9; Mtb hypoxia inh = 5; Mtb hypoxia inh growth = 6
# COc1ccc(Cl)cc1NC(=O)CN1C(=O)NC(Cc2c[nH]c3ccccc23)C1=O (stereo not drawn) reads BJeLR viability = .; Bead autofluor = 3058; ugtP null kill = -2; RN4220 kill = 6.2; PrP UTR inh = -2; Mtb hypoxia inh = 10; Mtb hypoxia inh growth = 4

# Next compounds.
SMILES,BJeLR viability,Bead autofluor,ugtP null kill,RN4220 kill,PrP UTR inh,Mtb hypoxia inh,Mtb hypoxia inh growth
CSc1nc(-c2ccccc2)nn1C(=O)c1ccco1,-3,4929,1,-1.5,-12,.,.
CC(CCN1C(Nc2ccccc2)=NC[C@@H]1Cc1ccccc1)c1ccccc1 (stereo partly drawn),2,3988,.,.,-7,.,.
Cn1ccnc1C(=O)c1cc(SCC(=O)NC2CC2)nc2ccccc12,-3,4153,-2,1.9,-8,5,-4
CCCCC(=O)OCc1c(-c2cccc(OC)c2)ncc2ccccc12,.,4205,86*,7.0,-1,14,4
COC(=O)C(=NNc1ccc(Cl)cc1)Sc1nnc(-c2ccc(OC)cc2)n1C,.,.,-3,5.7,.,7,1
COc1ccc2nc(SCCOC(=O)Nc3ccc(Cl)cc3)nc(C)c2c1,4,2544,13,4.0,-2,8,3
O=C(COc1ccc(F)c(Cl)c1)Nc1ccc(N2CCOCC2)cc1,.,3731,0,2.1,-20,3,3
CCOc1cc(S(=O)(=O)N2CCN(CC)CC2)ccc1Cl,-4,6046,-3,2.7,-16,.,.
COc1ccc(CN2CCNC(=O)C2CC(=O)N(C)Cc2ccon2)c(F)c1 (stereo not drawn),1,5604,7,2.1,4,1,-5
O=c1[nH]c2ccc(Cl)cc2c(=O)n1Cc1ccco1,3,2569,3,1.1,-11,.,.
O=C1NC(=O)/C(=C\c2cn(CC(=O)N3CCOCC3)c3ccccc23)S1,4,5763,3,2.9,-19,-3,-8
CCc1ccc(NC(=O)C2CCN(S(=O)(=O)c3c(C)[nH]c(=O)[nH]c3=O)CC2)cc1,-5,9221,6,-0.4,-6,9,-2
NS(=O)(=O)c1ccc(Sc2nc3ccccc3s2)c([N+](=O)[O-])c1,19,.,5,1.6,-22,-13,-10
COc1ccccc1C(=O)N(CCN(C)C)c1nc2cc(C)cc(C)c2s1,4,4463,-4,-3.3,-5,-2,-2
COc1ccc(-c2cc3nc(C)cc(NCCO)n3n2)cc1,11,10190,-4,1.7,-27,3,6
Cc1ccc(NC(=O)COC(=O)C2(CC(=O)NC(C)C)CCCC2)cc1C,.,3781,0,3.6,-5,8,14
Cc1ccc(C23CC4CC(CC(CN)(C4)C2)C3)cc1,5,4689,-14,-7.0,-24,6,9
CN(C(=O)COC(=O)COc1ccc(Cl)cc1)C1CCCCC1,-5,?,-5,-1.1,1,3,5
Cc1cc(C)c(-c2csc(NC(=O)c3n[nH]c(=O)c4ccccc34)n2)c(C)c1,13,2105,13,-12,-7,1,7
Cc1ccc(S(=O)(=O)N/N=C\c2ccccc2OCc2ccccc2)cc1,-2,8195,.,.,-9,.,.
COc1ccc(C(CCN2CCOCC2)c2c(OC)cc(OC)c3c(-c4ccccc4)cc(=O)oc23)cc1 (stereo not drawn),.,3013,-16,0.1,20,-2,2
CC(=O)Nc1ccc(-c2nnc(SCc3ccc(C)cc3)n2C)cc1,1,6822,3,3.6,-16,8,4
COc1ccc2oc(=O)c(-c3ccccc3C(=O)N3CCOCC3)cc2c1,0,2207,1,3.2,-10,-5,0
CC(C)(C)OC(=O)CN1C(=O)NC2(CCCc3ccccc32)C1=O (stereo not drawn),-6,3695,-4,-6.1,-29,2,1

# Ordered by formula weight (lowest first): some entries from above
SMILES,BJeLR viability,Bead autofluor,ugtP null kill,RN4220 kill,PrP UTR inh,Mtb hypoxia inh,Mtb hypoxia inh growth
Cc1ccc(C23CC4CC(CC(CN)(C4)C2)C3)cc1,5,4689,-14,-7.0,-24,6,9
COc1ccc(-c2cc3nc(C)cc(NCCO)n3n2)cc1,11,10190,-4,1.7,-27,3,6
Cc1ccc(NC(=O)COC(=O)C2(CC(=O)NC(C)C)CCCC2)cc1C,.,3781,0,3.6,-5,8,14

# Returning to the listing, starting two compounds before the break.
SMILES,BJeLR viability,Bead autofluor,ugtP null kill,RN4220 kill,PrP UTR inh,Mtb hypoxia inh,Mtb hypoxia inh growth
COc1ccc2oc(=O)c(-c3ccccc3C(=O)N3CCOCC3)cc2c1,0,2207,1,3.2,-10,-5,0
CC(C)(C)OC(=O)CN1C(=O)NC2(CCCc3ccccc32)C1=O (stereo not drawn),-6,3695,-4,-6.1,-29,2,1
COc1ccc2cc3c(N)nn(C(=O)c4ccc(Cl)c([N+](=O)[O-])c4)c3nc2c1,10,2414,6,3.8,-9,-5,3
O=C(c1ccco1)N1CCN(CC(O)COc2ccc(Br)cc2)CC1 (stereo not drawn),0,3546,8,0.1,-10,6,10
O=C(COC(=O)/C=C/c1ccc(OC(F)F)cc1)Nc1cccc(S(=O)(=O)N2CCOCC2)c1,.,3673,4,-1.8,-10,1,0
CC(C)c1ccc(OCC(O)CNC(C)c2ccccc2)cc1 (stereo not drawn),6,3908,5,-0.7,-6,10,19
O=C(OCC(=O)N1CCOCC1)c1cccc(S(=O)(=O)Nc2ccc(F)cc2)c1,.,?,-3,1.6,0,-8,-4
COc1cc2ccccc2cc1C(=O)NN=Cc1ccc2c(c1)OCO2,.,.,2,0.4,.,1,1
CCOC(=O)C1CCCN(C(=O)c2cccs2)C1 (stereo not drawn),7,3361,4,5.5,-21,6,6
Cc1cc(N2C(=O)NC(=O)CC2C)c(C)cc1C(C)C (stereo not drawn),-8,9142,-1,0.8,-30,-3,2
CNC(=O)c1ccc(NC(=O)c2ccc3c(=O)n4c(nc3c2)CCC4)cc1,.,8950,-6,-0.1,-24,5,-3
c1ccc(-c2[nH]c(-c3ccccc3)[n+](CC3CO3)c2-c2ccccc2)cc1 (stereo not drawn),12,2167,16,-2.2,-16,-4,0
Cc1ccc2c(C)nc(Nc3nc(CSc4nc5ccccc5[nH]4)cc(=O)[nH]3)nc2c1,16,10929,-4,-1.8,-12,-8,-3
COc1ccc(-c2noc(C3CCCN(C(=O)Nc4ccccc4F)C3)n2)cc1 (stereo not drawn),7,4885,-7,-1.3,-46,-6,8
O=c1c(=O)n2c(nn1Cc1ccc(F)cc1)sc1ccccc12,0,4202,10,1.9,-11,11,-4
CCCCCCOc1ccc(CN2CCN(CCO)CC2)cc1,10,11899,21,4.0,-52,18,18
COc1ccc(CCNC(=O)c2cccc(S(=O)(=O)N3CCCCC3)c2)cc1,-2,3137,-1,3.6,-28,2,-4
COc1ccc(C(=O)N/N=C\C(C)=C\c2ccccc2)cc1OC,-9,3774,.,.,-20,.,.
COc1ccccc1NC(=O)CSc1nnc(-c2ccncc2)o1,-1,4473,0,0.7,8,0,1
CC(C)CCNc1nc(-c2ccco2)c2c(c1C#N)CCCC2,8,2323,72,-6.7,-2,.,.
O=C1NC(=S)N(C(=O)c2ccc(F)cc2)/C1=C/c1ccccc1,-8,8624,64,49,-23,6,-1
Cc1cc(Nc2cccc(C)c2C)n2nc(C)nc2n1,-21,4401,5,0.4,-4,.,.
CCn1c(SCC(=O)Nc2ccc(OC)cc2)nc2c(c1=O)SCC2,-8,4382,10,-0.1,-26,10,0
CCOC(=O)c1c(NC(=O)c2ccccc2)sc2c1CCc1ccccc1-2,1,2639,27,-2.4,-19,13,-3
COc1ccc(C(=O)Nc2ccc3oc(-c4cccc(F)c4)nc3c2)cc1OC,4,4315,9,-0.9,-5,12,8
Cc1cc(NC(=O)C2CC(=O)N(c3ccc(Cl)cc3)C2)no1 (stereo not drawn),8,4326,8,1.0,5,4,0
COc1ccc(-c2ccc3c(N)c(C(=O)c4cccc(OC)c4)sc3n2)cc1,6,7266,-17,-1.8,.,-9,-4
COC(=O)NN=C(C)c1cccc(C(F)(F)F)c1,.,.,-3,7.6,.,6,4
CC(C)CCC1(C)NC(=O)N(CC(=O)NCC(=O)Nc2ccc(F)c(F)c2F)C1=O (stereo not drawn),.,?,1,8.8,-9,9,0
Cn1c(N)c(C(=O)COC(=O)CSc2cccc3cccc(Cl)c23)c(=O)n(C)c1=O,3,4202,-10,2.1,-15,-13,6
Cc1ccccc1-c1nnc(NC(=O)c2ccc(N3C(=O)CCC3=O)cc2)s1,3,6000,.,.,-25,.,.
COc1ccc(NC(=O)N(Cc2cccnc2)Cc2ccccc2Cl)c(OC)c1,-8,5829,2,1.7,.,1,5
O=C(CSc1nnc(-c2cccnc2)o1)NNC(=O)c1ccc(Br)cc1,-3,4267,3,9.8,-40,11,-4
Cc1ccc(C)c(NC(=O)COC(=O)CSc2ccccc2)c1,.,6042,10,2.1,-4,6,-12
CCCCNS(=O)(=O)c1ccc(NC(=O)c2cccs2)cc1,1,3624,-1,2.1,-6,4,0
C(=NN1CCCCCC1)c1cccc2ccccc12,.,3201,32,12,-26,6,2
CCN(CC)C(=O)CC(c1ccc(N(C)C)cc1)c1c(OC)cc(OC)c2ccc(=O)oc12 (stereo not drawn),3,2941,1,6.8,-6,16,9
O=C(CNS(=O)(=O)c1ccc(Br)s1)NCc1ccccc1,1,3043,9,0.4,-3,2,-4
